Screening results: PubChem, Broad Institute
DUX4 inh: DUX4-mediated transcription inhibition. 293T-iDUX4 ZSCAN4-Gaussia luciferase reporter, 24 h; active compounds read low. activity change, negative = inhibition, % (no concentration beside the values). hit rate 0.8% among 37,000. AID 1224904;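 active means -10% or lower and over 25 points stronger than a control reporter; inconclusive means -10% or lower with a smaller gap; inactive means above -10%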;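 further: 0% = median of neutral control wells and -100% = median of positive control wells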
DUX4 inh difference: also measured in DUX4 inh; calls as there; Gaussia minus Italica difference, %; measured here: selective DUX4 reporter inhibition;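 worked out from the two reporters; negative = selective loss of the DUX4 reporter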
DUX4 inh control: further read-out of DUX4 inh, marked with its call; activity change, negative = inhibition, %; measured here: Italica tet-on control reporter;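 0 = neutral control and -100 = positive control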
* = called active by the depositor; ? = inconclusive; nt = not tested or not shown; & = joins results of further samples. The list is partial. The share of hits here may be higher or lower than overall.

SMILES | DUX4 inh | DUX4 inh difference | DUX4 inh control
CN1C[C@H]2[C@@H](c3ccccc31)[C@@H](CO)N2C(=O)Nc1ccccc1Cl | -2 | -2 | 0.3
C[C@H]1CN([C@@H](C)CO)C(=O)c2cc(NC(=O)CCCN(C)C)ccc2O[C@H]1CN(C)Cc1ccc(Cl)c(Cl)c1 | 1 | 1 | 0.2
CCC(=O)N[C@@H]1CC[C@@H](CC(=O)NCC2CC2)O[C@@H]1CO | -2 | -2 | 0.1
CCN1[C@@H]2Cn3c(ccc(-c4ccccc4)c3=O)[C@H]1[C@@H](C(=O)NC1CCC1)[C@@H]2CO | 9 | 7 | 1.3
C[C@H](O)C#Cc1ccc([C@H]2[C@@H](CO)N3CCCCN(C(=O)c4cccc(F)c4)C[C@H]23)cc1 | -5 | -2 | -3.1
C[C@H](CO)N1C[C@H](C)[C@@H](CN(C)C(=O)Nc2cccc(F)c2)OCc2ccccc2-c2ccccc2C1=O | 0 | -1 | 0.4
C/C=C/c1ccc([C@@H]2[C@@H](CO)N(C(=O)CN(C)C)C23CN(C(=O)C2CCCCC2)C3)cc1 | 0 | -2 | 2.5
COCC(=O)N1CCCCN2[C@H](CO)[C@@H](c3ccc(C#Cc4cccnc4)cc3)[C@@H]2C1 | -2 | -6 | 4.2
O=C(c1ccccc1)N1CC(=O)N2[C@H](CO)[C@H](c3ccc(/C=C/c4ccccc4)cc3)[C@@H]2C1 | -3 | -5 | 1.1
CCc1sc(N2[C@H](C#N)[C@H](c3ccccc3-c3cccc(C)c3)[C@H]2CO)nc1C | -3 | -1 | -1.9
COC(=O)c1ccc(CN2CC(=O)N3[C@H](CO)[C@@H](c4ccc(-c5cccnc5)cc4)[C@H]3C2)cc1 | -2 | -2 | 0.6
COCC(=O)N1CC2(C1)[C@H](c1ccccc1)[C@H](CO)N2CCC(F)(F)F | 8 | 6 | 1.2
CCS(=O)(=O)N1CCCCN2[C@@H](CO)[C@@H](c3ccc(C4=CCCC4)cc3)[C@@H]2C1 | 14 | -7 | 22
CCC(=O)N1CC2(CCN(Cc3cncnc3)CC2)c2c([nH]c3cc(OC)ccc23)[C@H]1CO | 12 | 2 | 11
CNC[C@H]1OCCCC[C@@H](C)Oc2ccc(NS(=O)(=O)c3c(C)noc3C)cc2C(=O)N([C@H](C)CO)C[C@@H]1C | 2 | 2 | 0.4

Compound profiles, as listed above. Values in the order: DUX4 inh | DUX4 inh difference | DUX4 inh control
C[C@H](CO)N1C[C@H](C)[C@@H](CN(C)C(=O)Nc2cccc(F)c2)OCc2ccccc2-c2ccccc2C1=O as listed: 0 | -1 | 0.4
C[C@H]1CN([C@@H](C)CO)C(=O)c2cc(NC(=O)CCCN(C)C)ccc2O[C@H]1CN(C)Cc1ccc(Cl)c(Cl)c1 as listed: 1 | 1 | 0.2
CNC[C@H]1OCCCC[C@@H](C)Oc2ccc(NS(=O)(=O)c3c(C)noc3C)cc2C(=O)N([C@H](C)CO)C[C@@H]1C as listed: 2 | 2 | 0.4
C/C=C/c1ccc([C@@H]2[C@@H](CO)N(C(=O)CN(C)C)C23CN(C(=O)C2CCCCC2)C3)cc1 as listed: 0 | -2 | 2.5
O=C(c1ccccc1)N1CC(=O)N2[C@H](CO)[C@H](c3ccc(/C=C/c4ccccc4)cc3)[C@@H]2C1 as listed: -3 | -5 | 1.1

Following part.
SMILES | DUX4 inh | DUX4 inh difference | DUX4 inh control
C[C@@H]1CN([C@H](C)CO)C(=O)CCCn2nncc2CO[C@H]1CN(C)Cc1cccc(O)c1 | 2 | 6 | -3.9
O=C(NCC1CC1)[C@H]1[C@H](CO)[C@H]2Cn3c(cccc3=O)[C@H]2N1CCC(F)(F)F | 2 | 10 | -8.8
CCN1[C@H](C(=O)NCc2cccc(OC)c2)[C@@H](CO)[C@@H]2Cn3c(ccc(C4=CCCCC4)c3=O)[C@@H]21 | -3 | 0 | -2.8
CCCNC(=O)C[C@H]1CC[C@H]2[C@H](COc3ccc(NC(=O)c4cccs4)cc3C(=O)N2C)O1 | 4 | 1 | 3.0
COc1ccc2c3c(n(C)c2c1)[C@@H](CO)N(C(C)=O)CC31CCN(C(=O)Nc2ccccc2F)CC1 | 10 | 8 | 1.5
CN(C[C@H]1N[C@@H](CO)[C@@H]1c1ccc(-c2cccnc2)cc1)C(=O)c1ccccc1 | 0 | -2 | 1.9
COc1ccccc1NC(=O)N1C[C@@H](O)COC[C@H]2O[C@@H](CC(=O)NCc3ccccc3)CC[C@@H]21 | 2 | 3 | -1.2
CCCNC(=O)N1[C@H](CO)[C@@H]2c3ccccc3N(C(=O)Nc3ccc(F)cc3)C[C@@H]21 | 1 | -1 | 2.3
COc1ccc(CN2CC3(C2)[C@H](c2ccccc2)[C@@H](CO)N3CC2CCCC2)cc1 | ? | nt | nt
N#Cc1cccc(-c2ccc3c(c2)[C@H]2[C@H](CCN2C(=O)CN2CCOCC2)[C@@H](CO)N3)c1 | 9 | 7 | 2.1
COc1ccc(C(=O)Nc2ccc3c(c2)OC[C@@H](C)NC[C@@H](C)[C@H](OC)CN(C)C3=O)cc1 | -1 | 0 | -0.8
COC(=O)C[C@@H]1C[C@H]2c3cc(NS(=O)(=O)c4cccc(OC)c4)ccc3O[C@H]2[C@H](CO)O1 | 7 | 4 | 2.8
N#C[C@H]1[C@@H](c2ccccc2)[C@@H](CO)N1C(=O)c1ccccc1F | 2 | 2 | -0.1
CCC(=O)N1CC(=O)N2[C@H](C1)[C@@H](c1ccc(C#CC(C)C)cc1)[C@@H]2CO | -2 | -6 | 4.6
COc1ccc(CN2C[C@H](C)[C@@H](OC)CN(C)C(=O)c3cc(NC(=O)c4nc5ccccc5s4)ccc3OC[C@H]2C)cc1 | ? | nt | nt

A few values from the list.
DUX4 inh, N#Cc1cccc(-c2ccc3c(c2)[C@H]2[C@H](CCN2C(=O)CN2CCOCC2)[C@@H](CO)N3)c1 = 9
DUX4 inh, O=C(c1ccccc1)N1CC(=O)N2[C@H](CO)[C@H](c3ccc(/C=C/c4ccccc4)cc3)[C@@H]2C1 = -3
DUX4 inh control, CCCNC(=O)C[C@H]1CC[C@H]2[C@H](COc3ccc(NC(=O)c4cccs4)cc3C(=O)N2C)O1 = 3.0
DUX4 inh, COCC(=O)N1CCCCN2[C@H](CO)[C@@H](c3ccc(C#Cc4cccnc4)cc3)[C@@H]2C1 = -2

Continued.
SMILES | DUX4 inh | DUX4 inh difference | DUX4 inh control
O=C(Cc1cccnc1)N1CC2(C1)[C@H](c1ccccc1)[C@@H](CO)N2C(=O)C1CCCC1 | 6 | 0 | 6.3
O=C(NCC1CC1)[C@H]1[C@H](CO)[C@H]2Cn3c(ccc(-c4cccnc4)c3=O)[C@H]2N1Cc1cocn1 | -2 | 1 | -2.3
C[C@H]1CN([C@@H](C)CO)C(=O)CCCn2nncc2CO[C@H]1CN(C)C(=O)Nc1ccccc1 | 3 | -2 | 4.5
CCCNC(=O)N[C@@H]1C=C[C@H](CC(=O)N2CCN(C)CC2)O[C@H]1CO | 4 | 3 | 1.0
CC(C)NC(=O)N1CC2(C1)[C@H](c1ccccc1)[C@@H](CO)N2C(=O)C1CCC1 | 8 | -1 | 8.4
CNC(=O)C[C@@H]1CC[C@H]2[C@@H](COc3ccc(NC(=O)NCc4ccccc4)cc3C(=O)N2C)O1 | -4 | -4 | 0.0
CNC[C@@H]1Oc2ccc(NC(=O)C3CCCCC3)cc2C(=O)N([C@@H](C)CO)C[C@@H]1C | -3 | -5 | 2.6
C[C@H]1CN([C@@H](C)CO)C(=O)c2cccc(NC(=O)c3ccncc3)c2O[C@H]1CN(C)CC1CCCCC1 | 0 | 4 | -3.9
CC(=O)N1CCCCN2[C@@H](CO)[C@H](c3ccc(C#Cc4ccccc4F)cc3)[C@@H]2C1 | -10 | 2 | -12
Cn1cnc(S(=O)(=O)N2C[C@@H](O)COC[C@@H]3O[C@H](CC(=O)NC4Cc5ccccc5C4)CC[C@H]32)c1 | 5 | 3 | 1.8
CCC(=O)Nc1ccc2c(c1)OC[C@@H](C)N(CC1CC1)C[C@@H](C)[C@H](OC)CN(C)C2=O | -1 | -2 | 1.3
CCS(=O)(=O)Nc1ccc2c(c1)C(=O)N(C)[C@@H]1CC[C@H](CC(=O)N[C@H]3CCN(Cc4ccccc4)C3)O[C@@H]1CO2 | 4 | 21 | -16
COC(=O)C[C@H]1CC[C@@H]2[C@H](COc3ccc(NS(=O)(=O)c4ccc(C)cc4)cc3C(=O)N2C)O1 | -1 | 0 | -1.0
Cn1cnc(S(=O)(=O)N2CC[C@@H]3[C@H](CO)Nc4ccc(C#Cc5ccccc5F)cc4[C@@H]32)c1 | 0 | 7 | -7.0
CCCNC(=O)[C@H]1[C@H](CO)[C@H]2Cn3c(ccc(-c4ccccc4)c3=O)[C@@H]1N2C(=O)Nc1ccccc1 | -6 | -8 | 2.1
CCCN1[C@H](C(=O)NCCOC)[C@@H](CO)[C@@H]2Cn3c(ccc(-c4cccc(C(=O)N(C)C)c4)c3=O)[C@@H]21 | -1 | -4 | 3.4
O=C(C[C@H]1C=C[C@@H](NC(=O)c2ccc3c(c2)OCO3)[C@@H](CO)O1)NCc1ccc(F)cc1 | -4 | 1 | -4.7
COc1ccc2c3c(n(C)c2c1)[C@H](CO)NCC31CN(Cc2ccc(Cl)cc2)C1 | -48* | -27* | -21*
O=C(C[C@H]1CC[C@H](NC(=O)NC2CCCCC2)[C@@H](CO)O1)NCc1ccccc1 | -2 | -6 | 4.1
CCCC#Cc1ccc([C@H]2[C@H](CO)N3CCCCN(C(=O)NC4CCCC4)C[C@@H]23)cc1 | -8 | 11 | -18
C[C@@H]1CCCCO[C@H](CN(C)S(=O)(=O)c2cn(C)cn2)[C@@H](C)CN([C@H](C)CO)C(=O)c2cc(NC(=O)CCCN(C)C)ccc2O1 | 5 | -5 | 10
C[C@@H]1CN([C@H](C)CO)C(=O)Cc2cc(N(C)C)ccc2O[C@@H]1CN(C)CC1CC1 | 4 | 7 | -2.7
COc1ccc2c3c(n(C)c2c1)[C@@H](CO)N(Cc1cc(F)ccc1F)CC31CCN(C(C)=O)CC1 | -3 | 9 | -12
C[C@H](CO)N1C[C@H](C)[C@H](CN(C)Cc2ccc(Oc3ccccc3)cc2)Oc2ccc(N(C)C)cc2C1=O | -6 | -2 | -3.4
COc1ccc2c3c(n(C)c2c1)[C@@H](CO)N(C)CC31CCN(S(=O)(=O)c2cn(C)cn2)CC1 | 28 | 9 | 18
CCCNC(=O)[C@@H]1[C@@H](CO)[C@@H]2Cn3c(ccc(/C=C/c4ccccc4)c3=O)[C@@H]2N1CCC | -6 | -1 | -5.4
C/C=C/c1ccc([C@@H]2[C@@H](CO)N3CCCCN(C(=O)Nc4ccc(F)cc4)C[C@@H]23)cc1 | -5 | -14 | 9.2
Cc1ccc(-c2ccccc2[C@H]2[C@@H](C#N)N(C(=O)NC3CCCC3)[C@H]2CO)cc1 | -8 | 6 | -13
COCC#Cc1ccc([C@@H]2[C@@H](CO)N3CCCCN(Cc4ccncc4)C[C@H]23)cc1 | 24 | 6 | 18
COCC(=O)N1[C@H](CO)[C@@H](c2ccc(-c3cccc(F)c3)cc2)C12CN(C(=O)C1CC1)C2 | 2 | 1 | 0.5

Laid out differently: results already given
> CCC(=O)N1CC(=O)N2[C@H](C1)[C@@H](c1ccc(C#CC(C)C)cc1)[C@@H]2CO
  DUX4 inh = -2
  DUX4 inh difference = -6
  DUX4 inh control = 4.6
> COc1ccc(CN2C[C@H](C)[C@@H](OC)CN(C)C(=O)c3cc(NC(=O)c4nc5ccccc5s4)ccc3OC[C@H]2C)cc1
  DUX4 inh = ?
  DUX4 inh difference = nt
  DUX4 inh control = nt

Additional compounds follow.
SMILES | DUX4 inh | DUX4 inh difference | DUX4 inh control
CCN(C[C@H]1N[C@H](CO)[C@H]1c1ccc(-c2ccc(F)cc2)cc1)C(=O)COC | -2 | -2 | 0.1
COc1ccccc1C#Cc1ccc2c(c1)O[C@@H](CN(C)Cc1ccncc1)[C@@H](C)CN([C@H](C)CO)S2(=O)=O | 3 | 3 | -0.1
CO[C@@H]1CN(C)C(=O)c2ccc(NS(C)(=O)=O)cc2OC[C@@H](C)N(S(=O)(=O)CC(F)(F)F)C[C@H]1C | 3 | 5 | -1.4
CNC[C@H]1OCc2cnnn2CCCC(=O)N([C@@H](C)CO)C[C@H]1C | 0 | 4 | -4.2
CC=Cc1ccc2n(c1=O)C[C@H]1[C@H](CO)[C@@H](C(=O)NCCC)[C@@H]2N1C(=O)C1CC1 (mixture of isomers) | 12 | 9 | 3.7
COc1cccc(S(=O)(=O)N2C[C@H](O)COC[C@@H]3O[C@@H](CC(=O)N4CCN(C)CC4)CC[C@H]32)c1 | 5 | 2 | 3.7
O=C(Nc1ccccc1)N1C[C@@H]2[C@H](c3ccccc31)[C@H](CO)N2Cc1ccccc1Cl | -1 | 3 | -3.4
C[C@H](CO)N1C[C@H](C)[C@H](CN(C)C(=O)[C@H](C)c2ccccc2)OCc2ccccc2-c2c(n(C)c3ccccc23)C1=O | ? | nt | nt
CCCNC(=O)Nc1ccc2c(c1)C(=O)N(C)C[C@H](OC)[C@@H](C)CN[C@H](C)CO2 | 5 | 1 | 3.7
C/C=C/c1ccc([C@H]2[C@@H](CO)N(C(C)=O)[C@H]2CN(C)S(=O)(=O)CC)cc1 | 2 | 1 | 0.7
C/C=C/c1ccc2c(c1)[C@@H]1[C@@H](CCN1C(=O)Cc1cccnc1)[C@@H](CO)N2C | 8 | -2 | 9.3
Cc1ccccc1S(=O)(=O)N1[C@@H]2CNC[C@H]1C2c1ccc(-c2cncnc2)cc1 (some centres not stated) | 9&22 | 5&25 | 3.3&-2.4
C[C@@H](NC(=O)C[C@H]1CC[C@@H]2[C@H](COC[C@H](O)CN2C)O1)c1ccccc1 | 6 | 6 | 0.4
COc1ccc2c3c([nH]c2c1)[C@H](CO)N(Cc1ccccc1Cl)CC31CN(C(=O)C2CC2)C1 | ? | nt | nt
